Bioassay records from PubChem BioAssay.
CDC25B CDK2 inh: human CDC25B-CDK2/CyclinA binding inhibition | P30305+P24941 | HTRF CDC25B-CDK2/CyclinA binding, anti-His/anti-Flag; active compounds read high | z-score (test concentration not listed) | actives 0.72% (n = 94,000);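 also: score is relative to mean and SD of negative controls; strong numbers were not always called active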
HIV TAR-Tat: HIV-1 TAR-Tat binding disruption; actives 0.6% (n = 100,000); z-score (no concentration beside the values); HIV-1 TAR RNA, Tat peptide displacement FRET; active compounds read high;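 also: score is relative to mean and SD of negative controls; some compounds called inactive have numbers as strong as hits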
Numbers without * were called inactive; . = not tested or not shown.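 The calls were made as follows: active = z-score from 3 up in half or more of its runs; inactive = the rest.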

The opening four entries (preview)
canonical_smiles,CDC25B CDK2 inh,HIV TAR-Tat
CCn1c(C)[n+](CC(O)COc2ccccc2C)c2ccccc21 (stereo not drawn),-0.99,-0.36
O=c1[nH]ncc2c3ccccc3n(Cc3ccccc3F)c12,0.01,-0.1
COCCCN1C(=O)C(=O)/C(=C(\O)c2ccccc2)C1c1ccccc1 (stereo not drawn),-0.77,.
Cc1ccc(C)c(N2CCN(Cc3nnc(-c4ccccc4C)o3)CC2)c1,-0.19,0.87

The listing (from the top)
canonical_smiles,CDC25B CDK2 inh,HIV TAR-Tat
CCn1c(C)[n+](CC(O)COc2ccccc2C)c2ccccc21 (stereo not drawn),-0.99,-0.36
O=c1[nH]ncc2c3ccccc3n(Cc3ccccc3F)c12,0.01,-0.1
COCCCN1C(=O)C(=O)/C(=C(\O)c2ccccc2)C1c1ccccc1 (stereo not drawn),-0.77,.
Cc1ccc(C)c(N2CCN(Cc3nnc(-c4ccccc4C)o3)CC2)c1,-0.19,0.87
CC1CCC(=O)C(C(CC(=O)c2ccccc2)c2ccc3c(c2)OCO3)C1 (stereo not drawn),1.7,1.3
CCOc1ccc2c(c1)NC(c1ccc(OC)cc1)=NC(c1ccncc1)=N2,-1.2,0.19
Cc1ccc(C)c(Cn2cccc2CNC(=O)Nc2ccc3c(c2)OCO3)c1,.,-0.17
COc1cc(C)c(S(=O)(=O)N2CCc3ccccc3C2)cc1C,-2.1,.
O=C(Cc1ccc(NC2=NC3CS(=O)(=O)CC3S2)cc1)NCCC1=CCCCC1 (stereo not drawn),-1.2,-1.3
CCc1ccc2occ(CC(=O)Nc3sc4c(c3C(=O)NCC3CCCO3)CCCC4)c2c1 (stereo not drawn),2.6,1.4
CC(C)c1ccc(S(=O)(=O)c2nnn3c2nc(NCc2cccs2)c2sccc23)cc1,.,0.67
COc1ccc(OC)c(NC(=O)C2=Cc3cc(Br)ccc3OC2)c1,.,0.7
C=CCN1C(=O)C(O)(CC(=O)c2cccc(N)c2)c2ccccc21 (stereo not drawn),-0.41,-0.78
COCCOC(=O)C1=C(C)Nc2nc3ccccc3n2C1c1ccc(OC)cc1OC (stereo not drawn),-1.5,-1
Cc1ccc2ncc(NC(=O)c3ccccc3)c(=O)n2c1,-0.94,-0.39

Remaining list, next part
canonical_smiles,CDC25B CDK2 inh,HIV TAR-Tat
Nc1c(C(=O)CCC(=O)O)oc2ccc(Br)cc12,-0.29,-0.7
Cc1ccc(NC(=O)Nc2ccc(C)cc2)cc1,0.18,.
Fc1cccc(-c2nn3c(-c4ccncc4)nnc3s2)c1,-1.5,1.5
CCOC(=O)N1CCN(C(=O)CCCn2nc(C)c3sc4ccccc4c3c2=O)CC1,-2.3,1.3
CCCNC(=O)N(C)c1nncnc1C(=O)NC,0.04,-1.3
COc1ccc(-c2nc3n(n2)C(c2ccc(F)cc2)C2=C(CCCC2=O)N3)cc1 (stereo not drawn),-1.5,0.61
COC(=O)c1sc2ccccc2c1S(N)(=O)=O,.,-0.93
CCC(C)NC(=O)COCc1cc(-c2ccco2)on1 (stereo not drawn),.,-0.91
CCC(C)N(CCNS(=O)(=O)c1cc(-c2cc(C)no2)ccc1C)Cc1cccs1 (stereo not drawn),.,-0.09
CCc1nnc(SCc2nc(-c3ccc(OC)cc3)oc2C)c2cc3oc(C)cc3n12,.,2.7
CCC(=O)N1CCc2cc(Br)cc(S(=O)(=O)NCCC(C)C)c21,-0.14,.
CC1CN(c2nc3c(c(=O)n(Cc4ccccc4Cl)c(=O)n3C)n2C)CC(C)O1 (stereo not drawn),-2.2,1.5
COc1ccc(-c2cc(-c3cccnc3)c3c(N)c(C(=O)c4ccc(Cl)cc4)oc3n2)cc1,0.65,.
COc1ccc(C(=O)c2cc3c(CO)cnc(C)c3oc2=O)cc1,-1.7,-0.27
Clc1ccc(-c2nc(-c3ccccn3)no2)cc1,0.18,.

(listing goes on)
canonical_smiles,CDC25B CDK2 inh,HIV TAR-Tat
COc1ccc(NC(=O)COc2ccc(N3CC(C(N)=O)CC3=O)cc2)cc1 (stereo not drawn),0.21,0.11
CC1=C(C(=O)Nc2cc(-c3cccc(F)c3)[nH]n2)C2(CCCCC2)OC1=O,0.07,.
Cc1noc(/C=C/c2ccc3c(c2)n(C)c(=O)n3C)c1[N+](=O)[O-],-1.3,-0.31
COCCn1c(-c2ccc(F)cc2)nc2cccnc21,-0.04,-0.25
O=C(NCCc1cccs1)C1CCCN(c2nc3cccnc3s2)C1 (stereo not drawn),.,0.83
CCCNC(=O)c1ccc(CS(=O)c2ccc(Br)cc2)o1 (stereo not drawn),.,1.2
CCn1nc(C)c(CCNC(=O)NC(C)C)c1C,.,-0.75
CN1CCOc2ccc(S(=O)(=O)Nc3ccc(Cl)cc3)cc21,.,2
COc1cccc(N2C(N)=NC(N)=NC2(C)C)c1,0.95,.
Cn1c2c(c(=O)n(C)c1=O)C(c1ccc(Cl)cc1)C(C#N)=C(N)O2 (stereo not drawn),-2.7,.
COC(=O)c1ccncc1C(=O)O,-0.82,.
COc1ccc2nc3sc(C(=O)NC(C)C)cc3cc2c1,-1.1,.
N[C@@H](CCC(=O)N[C@H](CSN=O)C(=O)NCC(=O)O)C(=O)O,-0.42,.
CCc1cc2c(cc(C(=O)OC)n2CC(=O)NCC2CCCO2)s1 (stereo not drawn),-0.65,-0.01
O=S(=O)(NC1CCCC1)c1ccc(S(=O)(=O)N(Cc2ccccc2)Cc2ccccn2)cc1,0.57,0.54

Going on with the list.
canonical_smiles,CDC25B CDK2 inh,HIV TAR-Tat
CCc1ccc(S(=O)(=O)Nc2ccc3c(c2)N(S(=O)(=O)CC)CCC3)cc1,.,0.8
Cc1cccc(NC(=O)CCc2nc(-c3ccco3)no2)n1,-1.5,2.2
O=C(O)COc1ccc2ccccc2c1,-2.8,.
c1ccc(-n2ncnc2-c2csc(-c3ccncc3)n2)cc1,-1.8,.
N#Cc1cc2c(nc1SCC(=O)N(c1ccccc1)c1ccccc1)CCCC2=O,-1.6,2.3
COCCCNc1ncnc2c1cnn2-c1cccc(Cl)c1,.,0.3
Cc1[nH]n(C)c(=O)c1C(=O)c1c(-c2c(Cl)cccc2Cl)noc1C,-1,.
O=c1c(-c2ccc3c(c2)OCCO3)coc2cc(O)ccc12,-1.7,1.4
CCN(C(=O)C(=O)Nc1ccc2nc3n(c(=O)c2c1)CCCCC3)c1ccc(F)cc1,-2.2,.
CC1CCN(C(=O)C(NS(=O)(=O)c2ccc3c(c2)oc(=O)n3C)C(C)C)CC1 (stereo not drawn),-0.28,.
Cc1cccc(-c2noc(-c3ccc(Br)cc3)n2)c1,1.1,0.28
O=C1C(=O)N(Cc2ccccc2)c2ccccc21,0.31,2
O=c1[nH]nc(-c2ccc(Cl)cc2)c2c1Nc1nnnn1C2c1cccc(F)c1 (stereo not drawn),-1.7,1.4
CCN1CCN(Cc2c(O)ccc3c(=O)c(Oc4cc(C)cc(C)c4)c(C(F)(F)F)oc23)CC1,0.35,-0.4
CN1CCN(C(=O)CCc2nnc3ccc(N4CCN(C)CC4)nn23)CC1,.,0.82

The list continues:
canonical_smiles,CDC25B CDK2 inh,HIV TAR-Tat
O=C(c1ccccc1Br)N1CCc2cc3ccccc3nc21,-1.4,0.65
Cc1nc2c(C(=O)NCCC(C)C)c[nH]n2c(=O)c1Cl,-1.2,.
CSc1ccc(Cn2nnc(C(=O)Nc3ccc(Br)cc3)c2N)cc1,-1,.
CCCSCCCNC(=O)Cn1nc(CC)n2c(cc3sc(C)cc32)c1=O,-0.7,0.58
Cn1nc(C(=O)N2CCN(Cc3ccc4c(c3)OCO4)CC2)c2c1-c1ccccc1SC2,-0.93,0.12
Cc1ccc(S(=O)(=O)NC(C)(C)C)cc1,-0.32,.
Cc1c(NC(=O)C2C3C=CC(C3)C2C(=O)O)c(=O)n(-c2ccccc2)n1C (stereo not drawn),-1.8,0.27
COc1cccc(C2=CC(c3cccs3)n3nnnc3N2)c1 (stereo not drawn),-0.62,.
Cc1cc(-c2ccc(S(=O)(=O)N3CCC(C)CC3)cc2)on1,.,0.42
COc1cc(C2CC(=O)NC3=C2C(=O)CC(c2ccc(F)cc2)C3)c(OC)cc1Br (stereo not drawn),-1.9,-0.57
COc1ccccc1N1CCN(c2ncc3c(n2)CCN(Cc2ccc(C)s2)C3)CC1,.,0.7
COc1ccc(-c2cc(C)no2)cc1S(=O)(=O)N(C)c1ccc(C)c(C)c1,.,0.89
CCCc1cc(=O)n2nc(N(C)CC(=O)NCCN3CCCCC3)sc2n1,-0.31,-1.7
COc1ccc(NC(=O)N2CCN3CCCCC3C2)cc1 (stereo not drawn),.,1.6
CC(C)C1(C)C(=O)N=C2c3ccccc3C(=O)N21 (stereo not drawn),-0.08,.

Further results:
canonical_smiles,CDC25B CDK2 inh,HIV TAR-Tat
COc1ccc2c(c1)N(C)/C(=C/c1ccc3ccccc3[n+]1C)S2,1.5,-9.1
COC(=O)c1ccc(NC(=O)c2ccc3nc4c5ccccc5c5ccccc5c4nc3c2)cc1,-1.8,.
Cc1noc(/C=C/c2cccs2)c1S(=O)(=O)N1CCC(C(=O)NCCC(C)C)CC1,-0.6,0.85
CCOc1ccc(/C(O)=C2\C(=O)C(=O)N(Cc3cccnc3)C2c2ccc(Br)cc2)cc1 (stereo not drawn),-2.2,-0.67
O=C1CCc2cc(-c3csc(/N=C/NO)n3)ccc2N1,-0.36,.
Cc1cc(C2CCCN2C(=O)c2cc(F)c(F)cc2Cl)on1 (stereo not drawn),.,2
O=C1CC(c2ccsc2)c2cnn(-c3nc4ccccc4s3)c2N1 (stereo not drawn),.,2.1
CC(CN(C)C)OC(=O)c1ccc2c(c1)OCO2 (stereo not drawn),-0.13,0.31
N/C(=N\NC(=O)c1ccco1)c1ccccn1,0.55,.
COc1ccc(OC)c(CCNc2nc(-c3cccc(OC)c3OC)no2)c1,.,0.23
Cc1ccc(S(=O)(=O)NC(C)C(c2cccs2)N2CCN(c3ccc(F)cc3)CC2)cc1 (stereo not drawn),-1.5,.
COCCN1C(=O)C(O)=C(C(=O)c2cc3ccccc3o2)C1c1ccc(N(C)C)cc1 (stereo not drawn),0.56,1.2
CCOC(=O)c1c(C)n(-c2ccccc2)c2c1cc(O)c1ccccc12,-0.34,-2
CC(=O)OC(C#N)[C@H]1O[C@@H]2OC(C)(C)O[C@@H]2[C@H]1OC(C)=O (stereo partly drawn),-1.6,.
COC(=O)C1=C(O)CSC1=Nc1ccccc1F,-0.86,-1.4

Later entries.
canonical_smiles,CDC25B CDK2 inh,HIV TAR-Tat
CCCCCn1c(C)nc2c(sc3nc4c(cc32)COC(C)(C)C4)c1=O,0.46,1.2
CN1C(=O)c2cccc3c(S(=O)(=O)NCCCC(=O)O)ccc1c23,-0.34,1.6
CCOc1ccc(N(C)C(=O)CCc2nnc3ccc(N(CC)CC)nn23)cc1,.,1.1
O=S(=O)(c1ccc2nc(N3CCCC3)ccc2c1)N1CCCCC1,.,2.6
Cc1ccccc1-c1noc(C2CCCN(S(=O)(=O)c3ccc(Br)cc3)C2)n1 (stereo not drawn),.,1.3
CCn1nc(C)c(CCNS(=O)(=O)c2cccc(Cl)c2)c1C,.,2
O=C(Cn1ncn2nc(-c3ccco3)cc2c1=O)NCC1CCCO1 (stereo not drawn),-0.96,0.4
Cc1nnc(NC(=O)c2cn(-c3ccc(F)cc3)nn2)s1,-2.7,1.9
Cn1c(=O)c2cn3c(c2n(C)c1=O)C(c1cccc(F)c1F)Nc1ccccc1-3 (stereo not drawn),6.9,0.82
Cc1cc(C)n(-c2nc3ccccc3nc2NCCc2ccccc2)n1,-1.1,3.7
CC(=O)N1CN(C2CCCC2)Cc2c1sc1c2CCCC1,-0.62,.
Cc1ccc(NC2=NC(c3ccco3)n3c(nc(C)cc3=O)N2)c(C)c1 (stereo not drawn),-2.5,-0.88
Cc1sc2c(c1C)CSC(C(=O)Nc1ccc3c(c1)OCCO3)=C2,.,0.1
O=C(CSc1nc2cc(Cl)ccc2o1)Nc1cc(C(F)(F)F)cc(C(F)(F)F)c1,-0.85,.
CC1=C(c2ccc(C)c(C)c2)S(=O)(=O)N=C1N1CCC(C(=O)N2CCCC2)CC1,.,1.7

Taken from above.
CCOc1ccc(N(C)C(=O)CCc2nnc3ccc(N(CC)CC)nn23)cc1 | HIV TAR-Tat: 1.1
Cc1nnc(NC(=O)c2cn(-c3ccc(F)cc3)nn2)s1 | HIV TAR-Tat: 1.9
CCCCCn1c(C)nc2c(sc3nc4c(cc32)COC(C)(C)C4)c1=O | HIV TAR-Tat: 1.2
O=S(=O)(c1ccc2nc(N3CCCC3)ccc2c1)N1CCCCC1 | HIV TAR-Tat: 2.6
Cc1sc2c(c1C)CSC(C(=O)Nc1ccc3c(c1)OCCO3)=C2 | HIV TAR-Tat: 0.1

Remaining list, next part:
canonical_smiles,CDC25B CDK2 inh,HIV TAR-Tat
O=C(NCc1ccccc1)c1cccc2c3c([nH]c12)C(C(=O)O)CCC3 (stereo not drawn),-2.1,0.66
CC(C)OCCCN1C(=O)c2oc3ccccc3c(=O)c2C12C(=O)N(C)c1ccccc12 (stereo not drawn),-1.5,0.97
c1ccc2c(c1)c(N1CCCC1)nn1cnnc21,-0.53,0.22
CCCC(C(=O)OCCN(CC)CC)(c1ccccc1)c1ccccc1,0,1.1

Whole records, quoted from the list. Values in the order: CDC25B CDK2 inh | HIV TAR-Tat
`CC(C)OCCCN1C(=O)c2oc3ccccc3c(=O)c2C12C(=O)N(C)c1ccccc12` (stereo not drawn) in the list: -1.5 | 0.97
`O=C(NCc1ccccc1)c1cccc2c3c([nH]c12)C(C(=O)O)CCC3` (stereo not drawn) in the list: -2.1 | 0.66
`c1ccc2c(c1)c(N1CCCC1)nn1cnnc21` in the list: -0.53 | 0.22
